LT uptake inh: blocks cellular internalization of anthrax lethal toxin; AID 912; Potency, µM (doses to about 40 µM), for inactives: top-dose activity change, negative = inhibition, most hits filed as inhibitors; hit rate 0.67% among 70,000; Cells, anthrax lethal toxin internalization, FRET ratio (460/530); active = well fitted falling ratio curve with the 530 nm signal flat; inconclusive = other ratio curves, or a change in one channel alone; inactive = flat curves in the ratio and both channels; the % refers to the ratio; further: on the % scale 0 is the no-effect control and ±100 the full control effect; nearly all actives have a fitted effect of over 50% in size; tested in ME-180 cells; beta-lactamase reporter
Prx2 Sm inh: Schistosoma mansoni Prx2 inhibition | Potency, µM | hit rate 0.07% among 65,000 | S. mansoni Prx2 activity coupled to TGR/GSH (TGR is thioredoxin glutathione reductase), NADPH fluorescence loss, qHTS; some inactives read as strong as hits; active means full or partial inhibition curve with a strong effect at the top dose; inconclusive means weaker partial or single-point curve; inactive means no accepted curve; further: series up to 57 µM; many of its hits are not listed in these tables
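qHTS, coupled TGR/Prx2 format; 15 min compound preincubation at RT; reaction started with H2O2 (2.5 mM aliquot); kinetic NADPH fluorescence decrease, ex 365/em 450 nm.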
Numbers without * were called inactive; ? = inconclusive; · = not tested or not shown; [ ] = dose if it differs, or a comment. Potency means the concentration at half of the fitted maximal effect. A portion of the library; the hit share may differ from the screen's.

SMILES	LT uptake inh	Prx2 Sm inh
CC(C)(C)CC(C)(C)c1cc(O)c(O)c(CN2CCCCC2)c1	-20%[8 µM]	>57
COC(=O)NC(/C(C(=O)OC)=C(\C)NCc1ccccc1)c1ccc(Cl)cc1 (centres undefined)	-10%[8 µM]	·
COC(=O)c1c(-c2ccc(C)cc2)csc1N	-22%	>57
Cc1ccc(C(C)n2cc(C(=O)NCCN3CCN(C)CC3)nn2)cc1 (centres undefined)	-2%	>57
Cc1cc2oc3c(c(=O)c2cc1C)C(c1ccc(C(C)C)cc1)N(CCCN1CCOCC1)C3=O (centres undefined)	10%	>57
CCOc1ccc(C2C(=O)N(C3CCCCC3)CC(=O)N2CC2CCCO2)cc1OC (centres undefined)	·	>57
COc1ccc2c(CC(=O)OCC(=O)c3ccc(F)cc3)coc2c1	?	>57
CCOC(=O)c1cnc(SCC(=O)c2ccc3c(c2)OCCO3)nc1N	6%	>57
Cc1[nH]c2ccc(-c3n[nH]c(=S)n3C)cc2c1C	-6%	>57
NS(=O)(=O)c1ccc(NC(=O)CSc2ccccn2)cc1	-7%	>57
NC(=O)CN1CCOCCN(CC(N)=O)CCOCC1	1%	·
Cc1ccc(S(=O)(=O)N2CCN(CCO)CC2)cc1-c1nnc2c3ccccc3c(C)nn12	2%	>57
Cc1onc(-c2ccccc2Cl)c1C(=O)Nc1cnn(Cc2ccccc2)c1	-12%	>57
O=C(NC1CC2CCCC(C1)N2C(=O)NCc1ccccc1)C1CC1 (centres undefined)	6%	>57
COc1cc(CC2C(=O)N(C)C(=O)N(C)C2=O)ccc1OCc1ccccc1	-10%	>57
NS(=O)(=O)c1ccc(CCNC2CC(=O)N(Cc3ccccc3)C2=O)cc1 (centres undefined)	7%	>57
O=c1[nH]c(C2CCCN(S(=O)(=O)c3ccc(F)cc3)C2)nc2c1nnn2Cc1ccccc1 (centres undefined)	-2%	>57
CC(C)C[C@@H](CC(=O)N[C@H](CC(=O)N[C@@H]1CCNC[C@H]1C(=O)N[C@H](CC(=O)N[C@@H](CCC(=O)O)CC(=O)O)Cc1ccccc1)C(C)C)NC(=O)[C@@H]1CNCC[C@H]1N	?	>57
Cc1ccccc1NC1=NCC(C)S1 (centres undefined)	?	>57
COc1cccc(NC(=O)N2CCN(Cc3nc4ccccc4c(=O)[nH]3)CC2)c1	1%	>57

One compound at a time, as listed above. Screens in order: LT uptake inh	Prx2 Sm inh
COc1cc(CC2C(=O)N(C)C(=O)N(C)C2=O)ccc1OCc1ccccc1 as listed: -10%	>57
NC(=O)CN1CCOCCN(CC(N)=O)CCOCC1 as listed: 1%	·
CC(C)C[C@@H](CC(=O)N[C@H](CC(=O)N[C@@H]1CCNC[C@H]1C(=O)N[C@H](CC(=O)N[C@@H](CCC(=O)O)CC(=O)O)Cc1ccccc1)C(C)C)NC(=O)[C@@H]1CNCC[C@H]1N as listed: ?	>57

Later entries:
SMILES	LT uptake inh	Prx2 Sm inh
CCN(CC)CCn1c(-c2ccccc2)nc2c(NCCO)nc(C)nc21	-5%	·
N#Cc1cccc(NC(=O)c2nc(-c3ccccc3)n(-c3ccccc3)n2)c1	?	>57
O=C(c1ccccc1)[C@H](Nc1ccc2ccccc2c1)c1ccccc1	-26%[8 µM]	>57
COc1cc(Cl)c(C)cc1NC(=O)COC(=O)c1cnc(C)cn1	-2%	>57
Cc1cc(-c2ccccc2)nc2cc(C(N)=O)nn12	12%	>57
Cc1nnc2sc(-c3ccco3)nn12	10%	>57
COc1cccc(OC)c1C(=O)Nc1ccc(N2CCN(S(C)(=O)=O)CC2)cc1	-11%	>57
CCCCCCNC(=O)c1c(N)n(/N=C/c2ccco2)c2nc3ccccc3nc12	?	>57
COc1ccc(-n2nc(C(=O)Nc3ccc4c(c3)OCO4)c3ccccc3c2=O)cc1	?	>57
O=C(NCc1ccco1)c1ccc(COCC(F)(F)C(F)F)cc1	-2%	>57
O=C(O)c1ccc(C(=O)Nc2cccc3ccccc23)c(C(=O)O)c1	-22%[8 µM]	>57
On1c(-c2ccco2)nc2c1CCc1nonc1-2	-6%	·
CCCNC(=O)Nc1cc(C)on1	-5%	>57
Cc1ccc(NC(=O)Cc2nc(CSc3nnc(-c4ccc5c(c4)OCO5)o3)cs2)cc1	-10%	>57
CCOC(=O)N1CCN(C(=O)C2CCN(S(=O)(=O)c3cc(Cl)ccc3Cl)CC2)CC1	-1%	>57
COC(=O)Nc1ccc(NC(C)=O)cc1	3%	>57
C[C@@H]1[C@@H]2Cc3ccc(O)cc3[C@@]1(C)CCN2CC1CC1	-3%	>57
CN(C)CC(=O)N1c2ccccc2CCc2ccc(NC(=O)c3ccc(N)cc3)cc21	-5%	>57
CC1(C)Cc2nc(-c3ccccc3)n3cnnc3c2CO1	?	>57
Cc1nn(C)c(C)c1CN(C)C(=O)c1cnn2c1NC(c1ccccc1)CC2C(F)(F)F (centres undefined)	-3%	>57

Fetched by compound from above:
SMILES	LT uptake inh	Prx2 Sm inh
Cc1ccccc1NC1=NCC(C)S1 (centres undefined)	?	>57
CCN(CC)CCn1c(-c2ccccc2)nc2c(NCCO)nc(C)nc21	-5%	·
On1c(-c2ccco2)nc2c1CCc1nonc1-2	-6%	·

The listing continues:
SMILES	LT uptake inh	Prx2 Sm inh
Cc1cccc(CNc2ncncc2-c2cccnc2)c1	-4%	>57
CCN(CC)CCOC(=O)c1cccc(OC)c1	·	>57
O=c1[nH]c(=O)n(C2CCCO2)cc1Br (centres undefined)	-6%	>57
O=C1CC(N2CCN(c3ccc(S(=O)(=O)N4CCCC4)cc3)CC2)C(=O)N1c1ccc(F)cc1 (centres undefined)	5%	>57
CC(=O)Nc1cccc(NC(=O)C2CCCN2C(=O)Nc2cccc(F)c2)c1 (centres undefined)	-11%	>57
Cc1ccc(C(C(=O)NC2CCCCC2)N(C(=O)c2csnn2)C2CCCC2)o1 (centres undefined)	18%	>57
O=C(OCC(O)C(O)COC(=O)c1ccccc1)c1ccccc1 (centres undefined)	-11%	>57
CCOc1cccc(OCCCNCCCOC)c1	-6%	·
O=C1C2C3C=CC(C3)C2C(=O)N1c1ccncc1 (centres undefined)	-16%	>57
O=C(NCc1ccco1)C(C(=O)c1ccc(F)cc1)n1ccccc1=O (centres undefined)	-16%	>57
CCN(CC)C(=O)CSc1nnc(CCN)o1	?	>57
COc1cc(C(=O)NCCC(=O)NCCN2CCOCC2)cc(OC)c1OC	-6%	>57
O=C(c1ccncc1)c1nccn1-c1ccccn1	-2%	>57
CC/C(=C(\c1ccccc1)c1ccc(OCCN(C)C)cc1)c1ccc(O)cc1	?	·
COC(=O)CCCCCNc1ccc(C(=O)OC)cc1N	-3%	>57
COCCCNCCOc1cc(C(C)C)ccc1C	-20%	>57
CC(=O)Oc1ccc(-c2ccc(C(=O)O)cc2)cc1	1%	·
Cc1ccc(Cl)cc1N1CCN(C(=O)c2cc3c(=O)n(C)c4ccccc4c3n2C)CC1	-12%	>57
COc1cccc(Nc2cc(C)nc3ccccc23)c1	-11%	>57
Cc1nn(C)cc1CN(C)C(=O)c1cc2nc(-c3ccco3)cc(C(F)(F)F)n2n1	12%	>57
Cc1ccc(F)cc1NC(=O)C1CCN(c2cnccn2)CC1	?	>57
Nc1ccc(O)cc1C(=O)OCC(=O)C12CC3CC(CC(C3)C1)C2	?	>57
Cc1cc(C)c2cc3c(ccn3C3OC[C@H](O)[C@H](O)[C@H]3O)cc2n1 (some centres undefined)	·	>57
c1nnc(NC2=NCCCCC2)s1	-1%	>57
COc1cc(C2NC(=O)NC(C)=C2C(=O)OC(C)(C)C)ccc1OCC(N)=O (centres undefined)	-5%	>57
CCOc1ccc(C2C(C#N)=C(N)Oc3cc(C)n(Cc4ccco4)c(=O)c32)cc1OC (centres undefined)	?	>57
CN(C)S(=O)(=O)c1ccc(C(=O)OCC(=O)c2ccc(OC(F)F)cc2OC(F)F)cc1	?	>57
Cc1ccc2cc(CN(CC(C)C)C(=O)C3CCCO3)c(=O)[nH]c2c1 (centres undefined)	·	>57
Cn1nc(-c2ccc(Cl)cc2)c2cc(C(=O)NCCCN3CCOCC3)sc21	2.5µM*	>57
Cc1nn(CC(=O)Nc2ccccc2)c(=O)c2ccccc12	-10%	>57
CNC(=O)NC(=O)CSc1ccc(NC(C)=O)cc1	-5%	>57
C1CCCC1	?	·
[O-][N+]12CC[N+]([O-])(CC1)c1ccccc12	-3%	>57
Cc1ccc(S(=O)(=O)/N=C(\CN2CCCCC2)N2CCOCC2)cc1	-4%	·
Clc1c(CSc2nc3ccccc3o2)nc2ccccn12	-28%	>57
O=c1c2ccccc2oc2ncccc12	3%	>57
COc1ccccc1/C=c1\sc2nc(-c3ccncc3)nn2c1=O	0%	>57
O=S(=O)(c1ccccc1)N1CCC2(CC1)CN(c1ccccc1)C2	8%	>57
CCc1c2c(nc3cccc(OC)c13)OC(CC)C2 (centres undefined)	-10%	>57
CCOc1cc(C)c(S(=O)(=O)Nc2ccc(Cl)cn2)cc1C	6%	>57

An excerpt from above in order of molar mass, lowest first:
SMILES	LT uptake inh	Prx2 Sm inh
CNC(=O)NC(=O)CSc1ccc(NC(C)=O)cc1	-5%	>57
Cc1nn(CC(=O)Nc2ccccc2)c(=O)c2ccccc12	-10%	>57
Nc1ccc(O)cc1C(=O)OCC(=O)C12CC3CC(CC(C3)C1)C2	?	>57
CN(C)S(=O)(=O)c1ccc(C(=O)OCC(=O)c2ccc(OC(F)F)cc2OC(F)F)cc1	?	>57

Returning to the listing; the four compounds before the break are reprinted first.
SMILES	LT uptake inh	Prx2 Sm inh
COc1ccccc1/C=c1\sc2nc(-c3ccncc3)nn2c1=O	0%	>57
O=S(=O)(c1ccccc1)N1CCC2(CC1)CN(c1ccccc1)C2	8%	>57
CCc1c2c(nc3cccc(OC)c13)OC(CC)C2 (centres undefined)	-10%	>57
CCOc1cc(C)c(S(=O)(=O)Nc2ccc(Cl)cn2)cc1C	6%	>57
COc1ccc(N2C(=O)CC(N3CCN(S(=O)(=O)c4c(F)cccc4F)CC3)C2=O)cc1OC (centres undefined)	-2%	>57
O=c1cc(CN2CCN(Cc3ccccc3)CC2)c2cc(Cl)ccc2o1	?	>57
COCC(C)N=CC1=C(O)CC(C)(C)CC1=O (centres undefined)	0%	·
Cc1ccc(C(=O)NCC(=O)OCC(=O)c2c(N)n(C)c(=O)n(C)c2=O)s1	2%	>57
CC(C)c1ccc(NC(=O)NC2CCCCC2)cc1	3%	>57
CCCCn1nnnc1NCc1ccc(N2CCCC2)cc1	10%	>57
CCc1nnc(SCc2ccc(OC)c(Br)c2)n1N	-1%	>57
COc1ccc(C)cc1NC(=O)CSc1nnc(-c2ccc(OC)c(OC)c2)n1N	·	>57
Cc1cc(Cl)ccc1OCc1nc(-c2ccc(O)cc2)n[nH]1	-11%	>57
COc1ccc(CNc2nc(-c3ccoc3)nc3ccccc23)c(OC)c1	1%	>57
O=C(NC1CCN(Cc2ccccc2)CC1)C1COc2ccccc2O1 (centres undefined)	-4%	>57
Cc1nccn1-c1ccc(C(F)(F)F)cc1NC=O	14%	>57
Cc1ccc(S(=O)(=O)CC2CSc3nnc(C)c(=O)n32)cc1 (centres undefined)	·	>57
O=C(CSC1=Nc2ccccc2C2=NC(CC(=O)NCc3ccco3)C(=O)N12)NCC1CCCO1 (centres undefined)	16%	>57
COc1ccc(NCC(=O)Nc2ccc(Cl)cc2C)c(OC)c1	-2%	>57
CCCCn1cnc2c1c(=O)n(C)c(=O)n2C	-7%	>57
COCCNC(=O)CN(C(=O)CCC(=O)Nc1ccccn1)c1ccc(F)cc1	-4%	>57
O=C1CC(N2CCN(c3nc4ccccc4s3)CC2)C(=O)N1c1ccc(F)cc1 (centres undefined)	-2%	>57
CCOc1ccc(N2C(=O)CC(Sc3nc(C)cc(C)n3)C2=O)cc1 (centres undefined)	-13%	?
COc1ccc(CC(=O)N2CCN(C(=O)Cc3ccc(OC)cc3)CC2)cc1	4%	>57
CCCOC(=O)C1=C(C)NC2=C(C(=O)CCC2)C1c1ccc(N(C)C)cc1 (centres undefined)	7%	>57
NC(=O)CSCc1cccc(Br)c1	-2%	·
CCn1nnc(-c2ccccc2NC(=O)c2ccc(-n3cnnn3)cc2)n1	-5%	>57
CCC(=O)Nc1cc(-c2nn3c(C)nnc3s2)ccc1C	-1%	>57
CCN(C(=O)c1sc(N)c(C#N)c1C)C1CCCCC1	-20%	>57
CCOC(=O)CCc1c(C)nc2cc(C3CCCN(C(=O)OC(C)(C)C)C3)[nH]n2c1=O (centres undefined)	?	>57
CC(C)[C@H](Nc1ncnc2nc[nH]c12)C(=O)O	-1%[8 µM]	>57
COc1ccc(C(=O)N2CCC3(CCCN(c4ccncc4)C3)CC2)cc1	?	>57
O=C(O)c1ccc(CSCc2c(F)cccc2Cl)o1	·	>57
COc1ccc(-c2cn3cc(Cl)ccc3n2)cc1OC	-9%	>57
CSc1ncccc1C(=O)OCc1ccccc1	-8%	>57
CCOC(=O)Cc1c[nH]c2ccccc12	4%	>57
CCCS(=O)(=O)N1CCCC(C(=O)NCCCOCC)C1 (centres undefined)	21%	>57
O=C(O)CSc1n[nH]c(=O)[nH]c1=O	1%[8 µM]	>57
CCCC(=O)Nc1c2c(nn1-c1ccc(OC)cc1)CS(=O)C2 (centres undefined)	9%	>57
CN1C(=O)C(Cc2c[nH]c3ccccc23)NC1=S (centres undefined)	?	·
COc1ccc(C2CC(=O)N3CN(c4ccc(C)c(Cl)c4)CSC3=C2C#N)cc1OC (centres undefined)	6.3µM*	>57

Screens: PubChem, National Center for Advancing Translational Sciences (NCATS)
